# CtBP-E1A blk = CtBP/E1A binding inhibition; AlphaScreen GST-E1A/His-CtBP binding, 1536-well; stronger effect = lower value; control for the full effect not named in the record; activity change, % (test concentration not listed); 340,000 tested, 0.49% active; AID 651724; in the data active means activity change below about -65%; inconclusive means about -30% to -65%; inactive means above about -30%; also: % is scaled to controls: 0 for no effect and ±100 for the full control effect; compound concentration not given in the record
#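 Steps: dispense buffer (Tris pH 8.0, NaCl 300 mM, TCEP 1 mM, BSA, Tween 20); add 5X protein mix (GST-E1A, His-CtBP, 125 nM each); pin 23 nL compound; 2 h at 37 °C, dark; add 5X beads (50 ug/mL); 1 h; read.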
# Six1-Eya2 inh = Six1/Eya2 interaction inhibition; Q15475+O00167; 360,000 tested, 0.56% active; AlphaScreen GST-Six1/His-Eya2 binding, biochemical; stronger effect = lower value; control for the full effect not named in the record; activity change, % (concentration not given with the values); in the data active = activity change below about -65%; inconclusive = about -30% to -65%; inactive = above about -30%; also: % is scaled to controls: 0 for no effect and ±100 for the full control effect
# Target sequence (O00167 whole entry, looked up): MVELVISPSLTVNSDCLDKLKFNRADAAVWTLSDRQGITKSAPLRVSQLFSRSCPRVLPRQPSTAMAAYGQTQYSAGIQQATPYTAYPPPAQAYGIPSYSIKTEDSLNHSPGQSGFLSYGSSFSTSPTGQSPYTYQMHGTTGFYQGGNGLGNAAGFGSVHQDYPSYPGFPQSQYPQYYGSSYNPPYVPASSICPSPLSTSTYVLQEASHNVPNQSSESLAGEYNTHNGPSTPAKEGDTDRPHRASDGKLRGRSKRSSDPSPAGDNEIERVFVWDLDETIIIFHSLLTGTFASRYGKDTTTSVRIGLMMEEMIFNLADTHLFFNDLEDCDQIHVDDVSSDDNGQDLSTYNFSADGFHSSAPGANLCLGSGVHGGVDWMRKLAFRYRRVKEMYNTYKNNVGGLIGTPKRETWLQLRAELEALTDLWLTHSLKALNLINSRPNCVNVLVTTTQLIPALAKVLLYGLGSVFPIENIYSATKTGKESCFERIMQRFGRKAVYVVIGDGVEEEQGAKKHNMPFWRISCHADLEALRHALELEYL
# Target sequence (Q15475 whole entry, looked up): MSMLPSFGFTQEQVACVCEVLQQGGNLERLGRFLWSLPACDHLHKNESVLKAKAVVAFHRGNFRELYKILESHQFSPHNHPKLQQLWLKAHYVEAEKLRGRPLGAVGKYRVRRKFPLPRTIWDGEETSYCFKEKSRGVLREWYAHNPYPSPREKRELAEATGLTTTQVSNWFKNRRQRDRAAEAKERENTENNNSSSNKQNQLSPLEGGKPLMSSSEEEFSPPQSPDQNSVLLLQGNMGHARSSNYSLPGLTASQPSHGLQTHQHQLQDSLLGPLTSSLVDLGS
#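 Compounds are tested against tagged Six1 and Eya2 proteins bridged by glutathione donor and nickel acceptor beads; after a one-hour incubation at 37 °C without light, AlphaScreen emission is recorded.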
# D2 ag = activates the human D2 dopamine receptor; P14416; AID 624465; activation, % (no concentration beside the values); DiscoveRx PathHunter D2 beta-arrestin, luminescence, 90 min; 100% = 57 uM dopamine signal; 360,000 tested, 0.084% active; in the data active = activation above about 40%; inconclusive = about 15% to 40%; inactive = below about 15%; also: compound concentration not given in the record; the text of the record calls up to 30% inactive
#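 Agonist mode: compounds alone added to overnight-plated D2 PathHunter cells for 90 min at 37 C, with 57 uM final dopamine (EC100) defining full response. Beta-arrestin recruitment detected by chemiluminescent reagent, read after 1 h at ambient temperature.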
# D2 potentiator = potentiates the human D2 dopamine receptor allosterically | DiscoveRx D2 beta-arrestin cells, luminescence, 90 min; 100% = 57 uM dopamine signal | potentiation, % (test concentration not listed) | 360,000 tested, 0.23% active; active = potentiation of 50% or more; inconclusive = 30% to 50%; inactive = 30% or less;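 also: compound concentration not given in the record; tested on top of an EC20 dose of dopamine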
#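 PathHunter D2 cells, attached overnight at 37 deg C, received compound in DMSO plus dopamine at EC20 (50 nM final) for 90 min at 37 deg C. Beta-arrestin recruitment was read as luminescence after 1 h with detection reagent at ambient temperature.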
# gsp antagonist = antagonists of gsp mutant (McCune-Albright syndrome); gsp-mutant cells, cAMP HTRF, 30 min; control for the full effect not named in the record; Potency, µM (titrated, usually from 76.9 µM), for inactives: top-dose activity change, negative = inhibition, actives largely listed as inhibitors; 340,000 tested, 0.4% active; active = falling curve of any shape with a large fitted effect; inconclusive = falling curve, mostly with a smaller effect; inactive = flat or rising curve; cell line not stated here;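 also: intracellular cAMP measured with PDE inhibitor Ro 20-1724 present during compound exposure; potency is read from the fitted curve at half-maximal effect; % is scaled to controls: 0 for no effect and ±100 for the full control effect; nearly all actives have a fitted effect of over 65% in size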
#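 G418-selected cells were plated in DMEM/10% FBS for 16-24 h at 37C, then treated with compounds plus the PDE inhibitor […] (300 uM solution added) for 30 min at 37C. Intracellular cAMP was measured by HTRF after 30 min lysis at room temperature.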
# gsp ag = agonists of gsp mutant (McCune-Albright syndrome); gsp mutant cells, cAMP HTRF, 30 min; control for the full effect not named in the record; Potency, µM (doses to about 76.9 µM), for the others: at the top dose activation (cAMP increase), usual class: activators; 340,000 tested, 0.13% active; AID 624287; active = well fitted activation curve with a large enough effect; inconclusive = small, poorly fitted or top-dose-only effect, or another doubt; inactive = no such curve, though single readings can be large or run the other way; cell line not stated here;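 also: phosphodiesterase inhibitor Ro 20-1724 added with compounds to block cAMP breakdown; potency is read from the fitted curve at half-maximal effect; nearly all actives have a fitted effect of over 60% in size; about a fifth of the inactives were tested at one dose only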
#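 Cells stably selected in G418 were plated at 2000/well, grown 16-24 hr, then given compounds in DMSO with the PDE inhibitor […] (300 uM solution added) for 30 min at 37C; cAMP was read by HTRF.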
# Numbers without * were called inactive; i = inactive; ? = inconclusive; nt = no result given; [ ] = remark or other dose. Hits appear at their usual frequency, and some 1.4% of all compounds hit somewhere here.
nr	Compound	CtBP-E1A blk	Six1-Eya2 inh	D2 ag	D2 potentiator	gsp antagonist	gsp ag
1	Cc1nc2ccc(NC(=O)C3COc4ccccc4O3)cc2s1 (centres undefined)	-3.8	1.1	-1.7	-7.5	-5.5%	8.9%
2	CCc1ccc(N(CC(=O)NC2CCCCC2)S(=O)(=O)c2c(C)noc2C)cc1	-0.8	-1.0	-7.1	-14.7	-7.3%	-31.5%[inhibitor]
3	COc1ccccc1Nc1nc(-c2c(C)nc3ncccn23)cs1	-92.0*	-84.7*	-5.9	-20.8	-27.6%	-3.9%[15.4 µM]
4	COc1ccccc1C1=NN(C2=NN=C(N)Cc3ncnn32)C(O)(C(F)(F)F)C1 (centres undefined)	-65.3*	?	-6.0	-2.5	4.4%	-22.6%
5	Cc1cc(CN2CCCC(CO)(Cc3cccc(Cl)c3)C2)n[nH]1 (centres undefined)	-1.2	-1.0	-3.9	-14.7	9.5%	-1.3%[15.4 µM]
6	COc1ccc(CN2CC(=O)N(c3ccc(C)cc3C)C2=S)cc1OC	0.1	-0.7	11.0	8.4	-11.3%	25.5%[15.4 µM]
7	CCCCOC(=O)Cn1c(=O)n(CC(=O)OCCCC)c2cc(C)ccc21	18.8	10.6	-2.7	-7.9	0.2%	-25.3%
8	O=C(CNC(=O)c1ccccc1)OC(C(=O)O)c1ccc(F)cc1 (centres undefined)	-20.8	0.8	-3.2	-7.6	nt	28.9%
9	CC[C@H]1c2[nH]c3ccccc3c2C[C@@H]2C(=O)N(c3ccc(F)cc3)C(=O)N21	19.7	10.1	0.0	10.6	-25.3%	-36.3%[inhibitor]
10	Cc1cc(C)c(NC(=O)CSc2nnc(CNC(=O)c3ccco3)o2)c(C)c1	-2.3	2.8	-3.0	-8.4	-2.0%	-32.8%[inhibitor]
11	CC12CCC(=O)N1C(C(=O)Nc1nccs1)CS2 (centres undefined)	11.9	-1.3	0.0	-8.9	6.0%	7.4%[15.4 µM]
12	N#Cc1cc(N2CCOCC2)nc2ccccc12	nt	36.3	-4.9	-26.7	-2.0%	16.8%
13	CCC1Nc2ncnc(N3CCN(c4ccccc4)CC3)c2N(Cc2ccc(Br)cc2)C1=O (centres undefined)	nt	-28.4	-16.3	-51.0	0.3%	26.8%
14	CCN(C(=O)CN1CCN(c2ccccc2F)CC1)c1c(N)n(Cc2ccccc2)c(=O)[nH]c1=O	-2.9	1.4	-3.1	-14.1	1.5%	38.5%
15	CCN(C[C@H]1N[C@@](Cc2ccccc2)(C(=O)OC)[C@H]2C(=O)N(Cc3ccccc3)C(=O)[C@@H]12)C(=O)COC	4.0	0.3	-2.2	-5.9	-5.2%	nt
16	Oc1ccc(N=Nc2n[nH]c(-c3ccc(Br)cc3)n2)cc1	-19.4	-21.7	-3.9	-8.2	5.7%	-37.7%[inhibitor]
17	CC(=O)Nc1ccc(-c2ccnc3c2CC(C)(C(=O)Nc2cccc(Oc4ccccc4)c2)O3)cc1 (centres undefined)	-9.9	-11.0	-3.7	-12.6	nt	nt
18	CCOC(=O)N1CCC(=NNC(N)=O)C1	0.0	-1.8	-4.4	-5.6	nt	5.2%
19	CCc1nc2c(OCCC3CCCCC3)cccn2c1N(C)C(=O)c1ccc(OC)cc1	-13.4	-11.2	-7.8	-19.5	nt	nt
20	Nc1nc2n(n1)C(c1ccccc1Cl)CC(c1ccc(F)cc1)N2 (centres undefined)	0.0	0.3	-4.0	-8.5	-2.7%	0.3%
21	Cc1ccc(/C=C/C(=O)Nc2nc3ccccc3[nH]2)cc1	6.0	0.5	0.1	-13.7	19.0%	1.7%
22	CC1(C(=O)Nc2cccc3cccnc23)CCN1C(=O)Cc1ccc(Cl)cc1Cl (centres undefined)	-3.9	-7.2	-2.3	-3.1	nt	nt
23	C/C(=N\NC(=O)C1CC1)c1ccc(C)cc1C	0.0	0.0	-2.2	-1.7	-13.1%	-21.3%
24	O=C(O)C1C=CCC(C(=O)O)C1 (centres undefined)	1.2	-0.8	0.8	-4.4	nt	-21.2%
25	C#CCN(C[C@@H]1[C@@H](OC(=O)NC2CC2)[C@@H](OC(=O)NC2CC2)Cn2c(=O)n(CCCCCC)c(=O)n21)S(=O)(=O)c1ccc(C)cc1	0.8	-4.1	-9.4	1.3	nt	-30.7%[inhibitor]
26	Cc1nnc(SCC(=O)N2CCN(Cc3ccccc3)CC2)s1	-1.8	-0.5	1.0	5.8	1.2%	43.1%
27	COc1cccc(NC(=O)CNC(=O)c2ccc(OC)c(OC)c2)c1	-0.8	14.9	-1.5	-8.0	-1.2%	8.7%
28	CC1=NN(c2ccccc2)C(=O)/C1=C\c1ccc(Oc2ccc([N+](=O)[O-])cc2[N+](=O)[O-])cc1	3.1	-8.2	1.6	0.4	-16.1%	-3.6%[15.4 µM]
29	CC1(C(=O)NS(=O)(=O)C2CC2)CCCN(C(=O)c2ccc(F)c(Cl)c2)C1 (centres undefined)	-3.6	-0.5	1.9	-0.2	nt	nt
30	Cc1cccc(NC2=NC3(CCCCC3)N=C(N)N2)c1C	-1.6	-4.9	-4.7	-28.1	-0.3%[15.4 µM]	-2.1%
31	COc1ccccc1N1CCN(Cc2cc(OC)c3c(c2)OCO3)CC1	-1.1	-7.2	-5.8	-5.7	5.6%	-2.6%
32	O=C(NC1(C(F)(F)F)NC(=O)N(C2CCCC2)C1=O)C1CC1 (centres undefined)	5.7	8.0	1.9	-7.3	7.7%	-6.6%
33	N#C/C(=C\c1ccc(-c2ccc(C(=O)O)cc2)o1)C(=O)NCC1CCCO1 (centres undefined)	-7.3	3.2	-1.2	20.6	?	14.4%
34	NC(=O)C1CCCN(C(=O)CCCNC(=O)c2ccc(Cl)cc2)C1 (centres undefined)	6.1	5.6	4.6	-1.9	7.7%	12.1%
35	Cc1ccc2[nH]c(=O)c(N3CCOCC3)c(-c3ccccc3)c2c1	0.1	2.3	-1.6	-2.6	-10.2%	-3.6%
36	COC(=O)c1sc2[nH]c(=S)n(N)c(=O)c2c1C	-16.8	2.8	-3.6	-7.3	10.9%	39.6%[15.4 µM]
37	CCOc1cc(/C=N\NC(=O)CC(=O)NCCc2ccccc2)ccc1O	?	-8.6	7.4	-5.4	-9.3%	-6.3%[15.4 µM]
38	O=C(NNC1CC(=O)N(c2ccc3c(c2)OCCO3)C1=O)c1ccc(Cl)cc1 (centres undefined)	10.1	-3.8	2.2	-5.3	-1.2%	?
39	CCC(C)(C(=O)NC1CCCC1)N(Cc1cccs1)C(=O)c1ccc2c(c1)OCO2 (centres undefined)	-15.1	0.5	-7.1	-13.2	-5.7%	2.5%[15.4 µM]
40	CCC(C)Sc1nc2c(cnn2-c2ccccc2)c(=O)[nH]1 (centres undefined)	-1.9	-1.8	-3.2	-4.1	8.0%	24.5%

# Exported with values under each structure: entries from further up
# Values run as follows: CtBP-E1A blk	Six1-Eya2 inh	D2 ag	D2 potentiator	gsp antagonist	gsp ag
(27) COc1cccc(NC(=O)CNC(=O)c2ccc(OC)c(OC)c2)c1
  -0.8	14.9	-1.5	-8.0	-1.2%	8.7%
(28) CC1=NN(c2ccccc2)C(=O)/C1=C\c1ccc(Oc2ccc([N+](=O)[O-])cc2[N+](=O)[O-])cc1
  3.1	-8.2	1.6	0.4	-16.1%	-3.6%[15.4 µM]

# Next part:
nr	Compound	CtBP-E1A blk	Six1-Eya2 inh	D2 ag	D2 potentiator	gsp antagonist	gsp ag
41	O=C(COS(=O)c1ccccc1)Nc1cc(Cl)ccc1N1CCOCC1 (centres undefined)	nt	6.5	-3.5	-10.1	19.5%	4.2%
42	CC(C)C(CCNC1CCN(C)CC1)c1ccc(Cl)cc1 (centres undefined)	-2.1	2.2	-5.8	-4.8	19.9%	9.9%
43	Cc1cccc(N2NC(=O)/C(=C/c3ccc(-c4ccc(Cl)c(C(=O)O)c4)o3)C2=O)c1	4.1	-14.7	2.0	-2.9	nt	-3.7%[15.4 µM]
44	CCCCc1c(C)[nH]c(C(=O)OCC)c1C	0.0	-22.4	1.6	7.0	4.7%	-12.2%[15.4 µM]
45	Cc1ccc(C)n1-c1c(C(=O)NN)cnn1-c1ccccc1	2.9	-0.6	-0.1	4.8	0.9%	-17.1%[15.4 µM]
46	COc1ccc(C2N(c3ccccc3)C(=O)C2(F)F)cc1OC (centres undefined)	-11.2	-15.7	3.6	2.6	-0.9%	13.1%[15.4 µM]
47	COC(=O)c1cc(NS(=O)(=O)c2ccc(NCc3cccnc3)c([N+](=O)[O-])c2)cc(C(=O)OC)c1	-11.3	6.4	-5.2	-5.5	-6.3%	-39.8%
48	Cc1ccc(NCC(O)Cn2cnc3c2c(=O)n(C)c(=O)n3C)cc1 (centres undefined)	-7.2	-3.1	0.7	2.7	-0.4%	8.5%[15.4 µM]
49	Cn1cnc2nc[nH]c2c1=O	-17.3	3.2	1.2	-5.9	-6.2%	i
50	C[C@@H]1CN([C@@H](C)CO)C(=O)c2cccc(NS(C)(=O)=O)c2O[C@H]1CN(C)CC1CCCCC1	-0.5	-1.0	-0.7	-6.8	-4.0%	-3.2%
51	C=C1CCN([C@H](C(=O)NCc2ccc(Cl)cc2)C(C)C)S(=O)(=O)c2ccccc21	4.2	0.8	-3.8	-2.1	-4.5%	nt
52	CC1(C)Cc2nc(-c3ccccc3)nc(NNC(=O)c3ccco3)c2CO1	-0.6	-13.9	-5.9	-2.7	13.6%	-14.7%[15.4 µM]
53	O=C(Nc1ccc(S(=O)(=O)NC2CCCCC2)cc1)c1ccc(Br)o1	-9.7	-10.4	2.2	-9.1	-1.1%	-38.5%[inhibitor]
54	Cc1ccc(C)c(OCc2cc(C(=O)N(C)Cc3ccccn3)no2)c1	1.3	-2.7	-1.5	-2.1	6.1%	-7.4%
55	COc1cccc(C(=O)/C=C/c2ccc(OCC#N)c(OC)c2)c1	-0.3	0.6	0.4	-2.1	9.6%	-3.5%[15.4 µM]
56	O=C(O)CSc1nc2c(cnn2-c2ccccc2)c(=O)n1-c1ccc(Br)cc1	-1.6	1.7	-0.7	-9.2	8.1%	-8.6%
57	Cn1c(C(=O)NCCN2CCOCC2)cc2c(=O)n(C)c3ccccc3c21	-8.3	-2.8	-3.7	-1.8	-1.6%	16.8%
58	Cc1ccc(C(=O)NCCNC(=O)c2ccco2)cc1C	4.9	7.0	2.2	2.1	9.2%	1.2%
59	CO/N=C\CC(=O)Nc1ccc(Cl)cc1Cl	0.0	-1.3	0.5	3.1	nt	14.5%[15.4 µM]
60	C=CC[n+]1c(-c2ccc(OC)c(OC)c2)csc1NNC(=O)Nc1ccccc1	-18.5	-22.5	6.2	21.3	-25.0%	29.5%
61	Cc1cc(C)c(C(=O)N2CCCC(Nc3ccc(F)cc3)C2)o1 (centres undefined)	-5.1	-10.2	-2.3	-3.2	-1.2%	?
62	O=S(=O)(c1ccc2ccccc2c1)N1CCN(c2ccc(O)cc2)CC1	nt	?	1.1	2.6	-1.9%	-17.9%
63	COc1ccccc1OCCC(=O)OCC(=O)c1[nH]c(C)c(C(C)=O)c1C	6.4	3.8	2.1	-6.7	-14.0%	-29.1%
